Source: PubChem
Vaccinia Venus = qHTS for Stage-Specific Inhibitors of Vaccinia Orthopoxvirus: Venus Reporter Primary qHTS; Vaccinia virus Venus reporter expression, fluorescence; AID 720580, 2013; Potency, µM (doses to about 36.5 µM), without a hit: at the highest dose activity change, negative = inhibition, most hits filed as inhibitors; 330,000 compounds, 0.46% hits; active means well fitted inhibition curve with a large enough effect; inconclusive means small, poorly fitted or top-dose-only effect; inactive means no such curve, though single readings can be large or run the other way; tested in A549 cells; further: nearly all actives have a fitted effect of over 30% in size; inactives centre near -10
Vaccinia mCherry = qHTS for Stage-Specific Inhibitors of Vaccinia Orthopoxvirus: mCherry Reporter Primary qHTS | Vaccinia virus mCherry reporter infection, fluorescence; about a quarter of the inactives have no number | Potency, µM (titrated, usually from 36.5 µM), without a hit: top-dose activity change, negative = inhibition, most hits filed as inhibitors | 310,000 compounds, 0.63% hits | AID 720579, 2013; active = well fitted inhibition curve with a large enough effect; inconclusive = small, poorly fitted or top-dose-only effect; inactive = no such curve, though single readings can be large or run the other way; tested in A549 cells; further: nearly all actives have a fitted effect of over 35% in size; inactives centre near -10
Starred values were filed as active, the others as inactive; i = inactive; ? = inconclusive; / = not tested or not shown; & = joins results of further samples; [ ] = remark or other dose. On the % scale 0 is the no-effect control and ±100 the full control effect; potency means the concentration at half of the fitted maximal effect.

Fields: Vaccinia Venus | Vaccinia mCherry
O=C(COC(=O)/C=C/c1ccc(OC(F)F)cc1)NCCN1C(=O)CSC1=O
  9% | -2%
Cc1ccc(CN2CCN(/N=C/c3ccc(N(C)C)cc3)CC2)cc1
  -7% | -24%
Cn1c(NC(=S)Nc2ccccc2)nc2ccccc21
  -20% | -2%
CCCCCSc1cc(OC)c(CCN)cc1OC
  -18% | /
Cc1ccccc1-c1cc2c(c3c1ccn3C)C1CCC2C1 (configuration not stated)
  -9% | i
COc1ccccc1NC(=O)Cn1c(C)cc(=O)c2cccc(OC)c21
  ? | ?
Cc1ccc(NC(=O)COc2ccccc2[N+](=O)[O-])nc1
  4% | 0%
CCN(CC)S(=O)(=O)c1ccc2[nH]c(=O)cc(C(=O)Nc3ccccc3N3CCOCC3)c2c1
  -16% | i
O=C(NCc1ccc(F)cc1)C1CCCN(c2ncnc3onc(-c4ccc(F)cc4)c23)C1 (configuration not stated)
  -9% | -5%
CC1=NC2(CCCc3c2no[n+]3[O-])N(O)C1(C)C (configuration not stated)
  -9% | -20%
Cc1cc(Nc2cc(Cl)ccc2C)n2nc(-c3ccccc3)nc2n1
  -9% | -10%
CCCOC(=O)c1ccc(NC(=O)c2nc3nc(C)cc(C)n3n2)cc1
  -7% | -6%
COc1ccc(C2=COc3ccccc3C(=O)N2)cc1
  4% | 4%
COc1c(N)c2ccccc2[nH]c1=O
  -7% | -10%
O=C(Nc1nc(-c2ccc(S(=O)(=O)N3CCCC3)cc2)cs1)C1COc2ccccc2O1 (configuration not stated)
  ? | /

Compounds from the list above that contain sulfur:
Fields: Vaccinia Venus | Vaccinia mCherry
O=C(COC(=O)/C=C/c1ccc(OC(F)F)cc1)NCCN1C(=O)CSC1=O
  9% | -2%
Cn1c(NC(=S)Nc2ccccc2)nc2ccccc21
  -20% | -2%
CCCCCSc1cc(OC)c(CCN)cc1OC
  -18% | /
CCN(CC)S(=O)(=O)c1ccc2[nH]c(=O)cc(C(=O)Nc3ccccc3N3CCOCC3)c2c1
  -16% | i
O=C(Nc1nc(-c2ccc(S(=O)(=O)N3CCCC3)cc2)cs1)C1COc2ccccc2O1 (configuration not stated)
  ? | /

Next section.
Fields: Vaccinia Venus | Vaccinia mCherry
Cc1cccc(NC(=O)Cn2c(=O)n(CC3CCC(C(=O)NCCc4ccccc4)CC3)c(=O)c3ccccc32)c1 (configuration not stated)
  ? | ?
COc1cc2c(cc1O)CC[C@@H]1[C@@H]2CC[C@]2(C)[C@@H](O)CC[C@@H]12
  -25%&-21% | -4%&-8%
CC(=O)NN1C(=O)/C(=C\c2ccc(O)cc2)SC1=S
  16% | -1%
O=C(NCCCN1CCOCC1)c1cc(-c2ccco2)nc2ccccc12
  0% | -9%
C=CCN1c2ccccc2[C@]23C[C@@H](C(=O)OC)N(C(C)=O)C2=NC(C(=O)OC)=C(C(=O)OC)[C@H]13
  -11% | i
CCN(CC(=O)Nc1ccc(C)c(F)c1)CC(=O)NC(C)C
  -12% | -4%
CN1C(=O)CC(c2ccccc2)C1=O (configuration not stated)
  -11% | i
Cc1ccc(NC(=O)CSCC(=O)N(C)Cc2ccc(Cl)c(Cl)c2)cc1
  -19% | -28%
Cc1ccc(S(=O)(=O)N(C)C)cc1NC(=O)Nc1ccccc1F
  -18% | i
CN(C)CCCNc1nc2cc(-c3ccccc3)sc2c(=O)n1C
  -7% | 14%
COC1C/C(=N\O)C2OC(c3ccccc3)OCC2O1 (configuration not stated)
  -13% | -6%
CCOC(=O)C(=O)NN=C(c1ccccc1)c1ccccc1
  -5% | i
Cc1nc(N/C(N)=N/S(=O)(=O)c2ccc([N+](=O)[O-])cc2)nc2ccccc12
  0% | -10%
C(=NN=C1c2ccccc2-c2ccccc21)c1ccc2c(c1)OCO2
  -14% | -4%
Cc1ccc(NC(=O)c2cnc(SCC(=O)NCC3CCCO3)n(C)c2=O)cc1C (configuration not stated)
  0% | 0%

Taken from above.
CC1=NC2(CCCc3c2no[n+]3[O-])N(O)C1(C)C (configuration not stated) @ Vaccinia Venus: -9%
Cc1cc(Nc2cc(Cl)ccc2C)n2nc(-c3ccccc3)nc2n1 @ Vaccinia Venus: -9%
COc1c(N)c2ccccc2[nH]c1=O @ Vaccinia Venus: -7%
Cc1ccc(NC(=O)c2cnc(SCC(=O)NCC3CCCO3)n(C)c2=O)cc1C (configuration not stated) @ Vaccinia mCherry: 0%

More entries:
Fields: Vaccinia Venus | Vaccinia mCherry
Cc1ccc(S(=O)(=O)NCC(=O)N2CCC(C)CC2)cc1
  -5% | 4%
CCCSc1ccc([C@H]2N[C@@](Cc3ccccc3)(C(=O)OC)[C@H]3C(=O)N(CC)C(=O)[C@@H]23)cc1
  ? | -20%
COc1cnc(-c2ccccc2)c(-c2ccccc2)n1
  -11%[7.34 µM] | -2%[7.34 µM]
COc1cc(NC(=O)c2cccs2)c(OC)cc1NC(=O)CCC(=O)Nc1ccc2ncccc2c1
  ? | ?
CC1=NC(C#N)=C(C#N)NC(C)(C)C1
  -2% | 0%
O=C(CSc1nnc2ccccn12)N1CCc2ccccc2C1
  -19% | -6%
COc1ccc(-c2cc3nc(C)c(CCC(=O)N4CCN(c5cccc(Cl)c5)CC4)c(C)n3n2)c(OC)c1
  -18% | -26%
Cc1cc2c(cc1C)CSC(c1ccccc1OC(=O)C(C)(C)C)SC2
  -18% | i
COc1cccc(C(=O)Oc2ccc(/C=N/NC(=O)c3ccncc3)cc2OC)c1
  1% | -26%
CN(C)C(=O)C#Cc1ccccc1
  -10% | -17%
O=C(CCNC(=O)c1ccccc1Cl)NCC(c1ccco1)N1CCCC1 (configuration not stated)
  -6% | i
Cc1ccc(S(=O)(=O)N2CCCCC2C(=O)N(C)c2ccccc2)cc1 (configuration not stated)
  -4% | -13%
COc1cc(CNC(=O)c2cc(-c3ccccc3)n[nH]2)cc(OC)c1OC
  -12% | -1%
CCOc1ccc(NC(=O)CN(C)CC(=O)Nc2cc(Cl)ccc2C#N)cc1OCC
  -8% | -20%
CC1CC(C)CN(S(=O)(=O)c2cccc(C(=O)OCCN3CCCC3=O)c2)C1 (configuration not stated)
  -26% | /
Cc1cccc2sc(N(CCCN(C)C)C(=O)CCc3ccccc3)nc12
  ? | ?
Cc1ccc(S(=O)(=O)Cc2nnnn2-c2ccccc2)cc1
  -12% | -13%
O=C(O)CSCC(=O)N(Cc1ccccc1)c1nc(-c2ccccc2)c(-c2ccccc2)s1
  -16% | i
Nn1c(SCc2c(F)cccc2F)nnc1-c1ccccn1
  -6% | -9%
Cc1ccc2nc3[nH]c(=O)[nH]c(=O)c3c(N)c2c1
  -18% | -12%
COc1ccc(/C(N)=N/OC(=O)c2ccc3ccccc3c2)cc1OC
  -25% | i
CC(C)S(=O)(=O)NC(=O)C1(C)CCN1C(=O)Cc1ccccc1 (configuration not stated)
  -7% | 7%
CCOc1cc(CNC2CCCC2)cc(Cl)c1OCc1ccccc1
  ? | -9%[1.46 µM]
CCC(C)NC(=O)c1cnn(-c2ccc(Cl)cc2)c1C1CCN(C(=O)OC(C)(C)C)CC1 (configuration not stated)
  -4% | -5%
COC(=O)c1ccc(CSc2nc3c(c(=O)n2-c2ccccc2)SCC3)o1
  -8% | -19%
Cc1cc(C)c(NS(=O)(=O)c2cc(-c3cnc(C4CC4)o3)ccc2C)c(C)c1
  -4% | -8%
COc1ccc(NCC(=O)N/N=C/c2c(C)nn(Cc3ccccc3)c2Cl)cc1
  -17% | -8%
COC(=O)c1c(NC(=O)c2cnccn2)sc2c1CCC2
  -13% | -5%
COc1ccc(Br)cc1CNC(=O)c1cc(=O)[nH]c2ccc(S(=O)(=O)N3CCCC3)cc12
  -8% | -8%
N#CC1=C(N)Oc2cc(N)ccc2C1c1cccnc1 (configuration not stated)
  -26% | -19%
O=C1CC(N2C(=O)/C(=C/C=C/c3ccccc3)SC2=S)C(=O)N1c1ccccc1 (configuration not stated)
  13% | 2%
N#CC1(NC(=O)COC(=O)c2cc([N+](=O)[O-])ccc2N2CCOCC2)CCCCC1
  -17% | i
COc1ccc(NC(=O)CN2C(=O)C(c3ccccc3)=NC23CCCCCC3)cc1
  -20% | -14%
O=C(c1ccc(-c2cc(Cl)ccc2Cl)o1)N1CCOCC1
  ? | ?
CCO[C@H]1OC(C(=O)NCc2ccccc2)=C[C@@H](c2ccc3c(c2)OCO3)[C@@H]1CCCO
  -24% | i
CC(=O)Nc1ccc(NC(=O)CCn2nnc3ccccc32)cc1
  -13% | -4%
O=[N+]([O-])/C(C(=C(Cl)Cl)N1CCOCC1)=C1\NCCO1
  10µM* | 16µM*
CCc1cccc(NC(=O)Nc2ccc3c(c2)N(C)C(=O)c2ccccc2S3)c1
  -19% | -13%
Cc1cc(C)n(CC(O)COc2ccc3ccccc3c2)n1 (configuration not stated)
  -9% | -6%
Cc1cccc(NS(=O)(=O)c2c(C)nc3scc(C)n3c2=O)c1
  -21% | -27%
Cc1ccc2oc(=O)c3cc(C(=O)Nc4ccccc4C(N)=O)sc3c2c1
  1% | -5%
O=c1cccc2n1Cc1cc3ccccc3nc1-2
  -9% | -12%
O=C(Cc1cccc(C(F)(F)F)c1)NCC(c1ccco1)N1CCCCC1 (configuration not stated)
  4% | -10%
Cc1ccc(NC(=O)c2ccc(NC(=O)N3CCSc4ncccc43)cc2)cc1Cl
  -26% | -3%
CC1CCc2sc(NC(=O)C3CC(Cl)=CCC3C(=O)O)c(C#N)c2C1 (configuration not stated)
  -3% | i
CCOC(=O)C(O)(c1ccc(NC(=O)Oc2ccccc2)cc1)C(F)(F)F (configuration not stated)
  -13% | i
O=S(=O)(NCC(c1cccnc1)N1CCN(Cc2ccccc2)CC1)c1cc(F)ccc1F (configuration not stated)
  -7% | i
N=C1C(c2nc(-c3cccc([N+](=O)[O-])c3)cs2)=C(O)CN1NC(=O)c1ccco1
  -33% | -9%
CCOC(=O)n1c(=O)n(C)c2ccc(Cl)cc21
  -3% | i
O=C(c1ccccc1F)c1cn(CC(=O)N2CCOCC2)c2ccccc12
  -15% | i
CCCc1nc2ccc(Cl)cn2c1Cc1ccsc1
  6% | 16%
CC1=CCCC2C1(C)CCC(C)C2(C)CC/C(C)=C/C[n+]1cn(C)c2c(N)ncnc21 (configuration not stated)
  -7% | -22%
COc1cccc(C(NC(C)=O)c2nc(-c3cccc(C(=O)O)c3)cs2)c1 (configuration not stated)
  -16% | -14%
COc1cc2c(cc1NC(=O)C(C)Sc1ccc(NC(C)=O)cc1)oc1ccccc12 (configuration not stated)
  ? | ?
Cc1cc(NC(=O)CCC(=O)N(CC(=O)NCC2CCCO2)c2ccc3c(c2)OCCO3)no1 (configuration not stated)
  -4% | -6%
Cc1cc(S(=O)(=O)n2cnc3cc([N+](=O)[O-])ccc32)ccc1Cl
  -8% | i
COc1ccccc1-n1cnc2c(c1=O)c1nc3ccccc3nc1n2CCc1ccccc1
  -10% | -9%
O=C(CSc1nccc(=O)[nH]1)NC1CCCCCC1
  -1% | -10%
CCCS(=O)(=O)NC(=O)C1(C)CCCN(C(=O)c2cc3ccccc3s2)C1 (configuration not stated)
  2% | 24%
Cc1nn(CC(=O)OCC(=O)Nc2ccccc2[N+](=O)[O-])c(C)c1[N+](=O)[O-]
  -1% | -14%

Further structures follow:
Fields: Vaccinia Venus | Vaccinia mCherry
CCOc1ccc(C(=O)Nc2nnc(SCC(=O)NCC3CCCO3)s2)cc1OCC (configuration not stated)
  -5% | -2%
Cc1nc(SCC(=O)NCCc2ccc(Cl)cc2)nc(C)c1C
  -15% | i
CN(C)c1cccc(C(=O)Nc2cc(C(F)(F)F)ccc2-n2cnc3ccccc32)c1
  -10% | i
O=C(/C=C/c1ccc(Cl)cc1Cl)NC(=S)Nc1ccccn1
  1% | /
CCCn1nc2cc(C(=O)NC3CCCc4ccccc43)ccc2c1OCC (configuration not stated)
  ? | ?
Cc1ccc(CNC(=O)CSc2c(C(C)C)cnc3c2c(=O)n(C)c(=O)n3C)cc1
  -18% | -12%
OCCCNc1ncnc2c1[nH]c1ccccc12
  -15% | i
O=C(O)c1cccc2c1C(=O)c1ccc(-c3ccc(OC(F)(F)F)cc3)cc1S2(=O)=O
  -7% | i
COc1ccc(OC)c(C2=Nn3c(nnc3C3CCCCC3)SC2)c1
  -26% | ?
CC(c1ccccc1)N(NC(=O)C(O)(c1ccccc1)c1ccccc1)C(=O)c1ccccc1 (configuration not stated)
  -9% | -15%
CC(=O)Nc1ccc(NC(=O)C(C)OC(=O)c2ccc(C)s2)cc1 (configuration not stated)
  -3% | i
Cc1ccc(/C=C(\NC(=O)c2ccccc2)C(=O)NC(Cc2ccccc2)C(=O)O)cc1 (configuration not stated)
  -16% | -15%
COc1ccc(NC(=O)CSc2nc3[nH]ncc3c(=O)[nH]2)cc1OC
  -2% | -15%
N#C/C(=C\c1ccncc1)C(N)=O
  -4% | -19%
CC(CC(=O)N1CCN(C(=O)c2ccccc2)CC1)c1ccccc1 (configuration not stated)
  -14% | -1%
CCCCOc1ccc(Cl)cc1CSc1n[nH]c(C)n1
  -16% | i

Rows are unselected; overall some 0.82% were active at least once.
